Marburg entry inh: Marburg virus entry inhibition; Marburg virus pseudotyped entry inhibition, cell reporter; control for the full effect not named in the record; about a third of the inactives were read at about 46 µM; Potency, µM (titrated, usually from 37.8 µM), without a hit: at the highest dose activity change, negative = inhibition, hits mostly inhibitors; actives 1.8% (n = 300,000); AID 540276; active = well fitted inhibition curve with a large enough effect; inconclusive = small, poorly fitted or top-dose-only effect, or effect the other way; inactive = flat fitted curve, though single readings scatter; tested in HEK293 cells; about a fifth of its hits are not listed in these tables; note: % is set by controls: 0 for no effect and ±100 for the full control effect; luciferase read-out
Lassa entry inh: Lassa virus entry inhibition | Lassa virus pseudotype entry inhibition, cell reporter; control for the full effect not named in the record | Potency, µM (titrated, usually from 37.9 µM), for the others: at the top dose activity change, negative = inhibition, hits mostly inhibitors | actives 1.2% (n = 300,000); active means well fitted inhibition curve with a large enough effect; inconclusive means small, poorly fitted or top-dose-only effect, or effect the other way; inactive means flat fitted curve, though single readings scatter; tested in HEK293 cells; note: % is set by controls: 0 for no effect and ±100 for the full control effect; nearly all actives have a fitted effect of over 50% in size; luciferase read-out
NS1 function inh: blocks influenza NS1 protein function; S. cerevisiae slowed by influenza A NS1, growth recovery by OD600; actives 0.4% (n = 270,000); Potency, µM (series often up to 46.1 µM), inactives show top-dose activity, positive = more growth; active means well fitted rising curve with a large enough effect; inconclusive means small, poorly fitted or top-dose-only effect; inactive means no such curve, though single readings can be large or run the other way; note: nearly all actives have a fitted effect of over 50% in size
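Read-out: OD600 growth recovery of NS1-expressing budding yeast. Cells grown overnight at 30C in -URA glucose medium, washed, resuspended and diluted 1:100 in 2% galactose assay medium, pH 6.0. Same strain lacking NS1 served as positive control.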
Cruzain noTriton: inhibitors of Trypanosoma cruzi cruzain without detergent. purified cruzain, Z-FR-AMC fluorescence, no detergent. P25779. AID 1476. Potency, µM, for inactives: max response, negative = inhibition, hits mostly inhibitors. actives 2.3% (n = 200,000);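 note: plate controls were enzyme without inhibitor for no effect and buffer without enzyme for full effect; nearly all actives have a fitted effect of over 40% in size; top concentration of the series not given in the record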
Target sequence (P25779 123-467 limits assumed): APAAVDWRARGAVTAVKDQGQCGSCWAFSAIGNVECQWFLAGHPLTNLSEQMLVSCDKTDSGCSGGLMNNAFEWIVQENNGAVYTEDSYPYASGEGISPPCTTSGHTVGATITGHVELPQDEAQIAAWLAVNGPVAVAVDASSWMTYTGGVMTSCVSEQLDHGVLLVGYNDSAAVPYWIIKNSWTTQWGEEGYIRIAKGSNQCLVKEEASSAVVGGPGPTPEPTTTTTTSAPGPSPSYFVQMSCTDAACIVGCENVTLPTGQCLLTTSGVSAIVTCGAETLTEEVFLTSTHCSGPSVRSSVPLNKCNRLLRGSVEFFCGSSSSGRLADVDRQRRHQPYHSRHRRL
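Purified cruzain at 1.5 nM, pre-incubated 15 min with compound at room temperature in 100 mM sodium acetate pH 5.5, 5 mM DTT, 0.00005% Triton X-100. Reaction started with 2 uM Z-FR-AMC; AMC fluorescence increase over 60 s gives rate.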
RE007 growth inh: less growth of the S. pombe RE007 Vpr strain; S. pombe RE007 Vpr strain, BacTiter-Glo ATP luminescence, 24 h; control for the full effect not named in the record; Potency, µM (highest dose often 92.2 µM), without a hit: top-dose activity change, negative = less growth; actives 0.21% (n = 360,000); AID 651644; active = well fitted falling curve with a large enough effect; inconclusive = small, poorly fitted or top-dose-only effect; inactive = no such curve, though single readings can be large or run the other way;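 note: % is set by controls: 0 for no effect and ±100 for the full control effect; nearly all actives have a fitted effect of over 50% in size; the assay follows cell death caused by Vpr and the record does not say whether a fall means rescue or toxicity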
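Fission yeast strain RE007, carrying one chromosomally integrated HIV-1 vpr copy, was seeded at OD 0.01 in PMG+AL medium with 23 nL pinned compound. After 24 h at 30 °C and 99% humidity, viability was read by BacTiter-Glo luminescence.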
SARS PLP yeast: blocks SARS-CoV papain-like protease in a yeast assay; S. cerevisiae expressing SARS-CoV PLpro, growth rescue; control for the full effect not named in the record; Potency, µM (top dose mostly 32.9 µM), inactives show at the top dose activity, positive = growth rescue; actives 0.19% (n = 330,000); AID 485353; active means well fitted rising curve with a large enough effect; inconclusive means small, poorly fitted or top-dose-only effect; inactive means no such curve, though single readings can be large or run the other way; note: 0% is about no effect; nearly all actives have a fitted effect of over 55% in size; growth read by luminescence after 48 h
StopGo reporter: lowers the luciferase signal of an FMDV 2A StopGo reporter; human cells with a luciferase reporter of 2A StopGo recoding; control for the full effect not named in the record; Potency, µM (doses to about 57.9 µM), inactives show top-dose signal change, negative = less light; actives 1.2% (n = 410,000); AID 1159524; active = well fitted falling curve with a large enough effect; inconclusive = small, poorly fitted or top-dose-only effect; inactive = no such curve, though single readings can be large or run the other way; tested in HEK293T cells; note: % is set by controls: 0 for no effect and ±100 for the full control effect; nearly all actives have a fitted effect of over 45% in size; luciferase light after 4 h
Cruzain inh Det: blocks cruzain activity in presence of Triton detergent; P25779; purified cruzain, Z-FR-AMC fluorescence, 0.01% Triton; Potency, µM, for the others: max response, negative = inhibition, actives largely listed as inhibitors; actives 0.43% (n = 200,000);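 note: plate controls were neutral wells for no effect and buffer without enzyme for full effect; nearly all actives have a fitted effect of over 40% in size; top concentration of the series not given in the record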
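Cruzain (1.5 nM) preincubated 15 min at RT with compound in 100 mM sodium acetate pH 5.5, 5 mM DTT, 0.01% Triton X-100. Reaction started with 2 uM Z-FR-AMC; AMC fluorescence (ex 360/em 450 nm) change over 60 s gave rate.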
* hit, by the source's call; ? = inconclusive; / = not tested or not shown; & = joins results of further samples; [ ] = another dose, or the depositor's remark. Unless noted, calls come from the whole dose curve; as a rule, active = well fitted curve in the direction sought with a large enough effect; inconclusive = small, poorly fitted or top-dose-only effect, or another doubt; inactive = no such curve, though single readings can be large; an effect the other way counts as inactive or inconclusive. Potency is the fitted concentration of half-maximal effect.

Results follow in this order: Marburg entry inh | Lassa entry inh | NS1 function inh | Cruzain noTriton | RE007 growth inh | SARS PLP yeast | StopGo reporter | Cruzain inh Det
1. O=C(CCNS(=O)(=O)c1c(Cl)cccc1Cl)OCC(=O)c1ccccc1
    -36% | -2% | -1% | 14% | / | 21% | 10% | -5.0%
2. O=C(CCC1N=C2c3ccccc3N=C(SCc3ccc(F)cc3)N2C1=O)NCc1ccco1 (stereo not given)
    -20%&-20% | -12% | -6% | ? | 1% | ? | -1% | -12%
3. O=C(CN(c1ccc(Cl)c(C(F)(F)F)c1)S(=O)(=O)c1ccccc1)N/N=C/c1cccc2c1OCCO2
    ? | -18% | ? | ? | 10% | -5% | -25% | 2.8%
4. CCC(=O)N1CCc2nc(-c3ccccc3)sc2C1
    / | / | -2% | / | -3% | 7% | 73%[activator] | /
5. CCCCNC(=O)[C@H]1C[C@H]1[C@@H](O)[C@H](CO)NC(=O)[C@H](Cc1ccccc1)NC(=O)OC(C)(C)C
    / | / | -7% | / | -7% | -4% | -2% | /
6. Cc1onc(-c2ccccc2Cl)c1C(=O)Nc1ccc(Cl)cn1
    / | / | -6% | / | -7% | -2% | -8% | /
7. CN(CC(=O)N1CCN(Cc2ccccc2)CC1)S(=O)(=O)c1ccc(F)cc1
    5% | 19% | -12% | / | -21% | 8% | 0% | /
8. COc1ccc(S(=O)(=O)CCC(=O)N2c3ccccc3CC2C)cc1 (stereo not given)
    1% | -9% | -23% | -3% | -6% | -3% | -23% | 2.2%
9. COc1ccc(OC)c(S(=O)(=O)N2CCC(C(=O)N3CCN(Cc4ccccc4)CC3)CC2)c1
    5%&5% | -3% | -2% | 14% | 7% | -8% | -45% | 2.6%
10. CN(C)c1ccc(/C=C2/C(=O)NC(=O)N(Cc3ccco3)C2=O)cc1
    -19% | -3% | -24% | 1% | 4% | -2% | 0% | -4.9%
11. COC(=O)c1ccc(S(=O)(=O)c2ccccc2)c(N)c1
    ? | -2% | 8% | 20% | -22% | ? | -12% | -3.5%
12. O=C(CN1C(=O)NC2(CCCC2)C1=O)Nc1nc2ccccc2s1
    9% | 12% | / | / | -11% | / | 27% | /
13. Cc1cccc(-n2c(SCC(N)=O)nnc2-c2ccccn2)c1C
    -6%[46.1 µM] | ? | 7% | 3% | 2% | 3% | -1% | 1.1%
14. CC(=O)n1cc([C@H]2C=C(C(=O)N3CCN(Cc4ccc5c(c4)OCO5)CC3)O[C@@H](OCc3ccc(CO)cc3)C2)c2ccccc21
    / | / | -3% | / | -1% | 0% | ? | /
15. O=C(CSc1ncn[nH]1)NCCc1ccc(Cl)cc1
    -2%[46.1 µM] | ? | 5% | / | 10% | 0% | -2% | /
16. COC(=O)c1cc(NC(=O)Nc2ccccc2)ccc1Cl
    ? | 4% | -10% | -10% | -17% | 20% | 39%[activator] | -7.4%
17. Cc1cc(N2CCN(S(=O)(=O)c3ccc4c(c3)OCCO4)CC2)n2ncnc2n1
    14% | 1% | -48% | ? | -3% | / | -6% | 3.2%
18. Cc1cc(C)nc(NC(=O)c2cc(Br)ccc2Cl)n1
    7%[46.1 µM] | 10%[46.1 µM] | / | / | -4% | -1% | 4% | /
19. COc1ccccc1C1CN(c2ccccc2)N=C1c1cccs1 (stereo not given)
    -10% | -24% | 23% | ? | 4% | -14% | / | 6.0%
20. CCOc1ccc(-c2n[nH]c(=S)n2/N=C/c2cc3c(cc2[N+](=O)[O-])OCO3)cc1
    -12% | ? | 9% | 2% | 23% | -1% | -11% | -4.3%
21. COc1cc(C(=O)NNC(=O)c2ccc3c(c2)OCCO3)cc(OC)c1OC
    -6% | ? | / | / | -12% | -2% | 4% | /
22. COc1ccc(OC)c(NC(=O)CN(Cc2ccc(Cl)cc2)S(C)(=O)=O)c1
    ? | 0% | -4% | / | 4% | 1% | -11% | /
23. O=C(CON=C1c2ccccc2-c2ccccc21)NC12CC3CC(CC(C3)C1)C2
    ? | ? | -9% | ? | 5% | -15% | ? | -4.0%
24. CCOC(=O)c1c2n(c3ccc(O)cc13)CCCCC2
    ? | -15% | -2% | -12% | 20% | 1% | ? | -2.0%
25. COc1ccc(CNc2nc(SC)n[nH]2)cc1OC
    10%[46.1 µM] | 4% | ? | -14% | 0% | 17% | -3% | 5.8%
26. Cn1c(O)c(C(c2ccccn2)c2c(O)n(C)c(=S)[nH]c2=O)c(=O)[nH]c1=S
    -7% | 2% | -13% | -8% | -9% | 12% | -7% | 0.3%
27. Cc1cnc(NC(=O)CSc2nnc(-c3ccncc3)n2C2CCCCC2)s1
    -13% | 2% | 0% | 21% | -8% | -2% | -18% | -1.3%
28. COc1ccc(CNC(=O)C2CCN(c3nnc(-n4c(C)ccc4C)s3)CC2)c(OC)c1
    -15%[46.1 µM] | -26%[46.1 µM] | / | 16% | / | / | -20% | -3.4%
29. Cn1c(Nn2cnnc2)nc2ccccc21
    1% | ? | 4% | -7% | -1% | -4% | -4% | 2.0%
30. CC(C)C(=O)Nc1nc(-c2ccc3c(c2)CCN3C(=O)C2CC2)cs1
    20%[46.1 µM] | / | 9% | / | -10% | -2% | -38% | /
31. CN(C(=O)COC(=O)c1ccc([N+](=O)[O-])cc1)c1ccccc1
    10%[46.1 µM] | 0%[46.1 µM] | 1% | / | 1% | 3% | -2% | /
32. CC1CC(C)CN(C(=O)CCNS(=O)(=O)c2cccs2)C1 (stereo not given)
    -4% | 1% | -6% | -4% | -19% | 16% | 1% | 1.3%
33. COc1cc(CNC2CCCc3ccccc32)cc(OC)c1OC (stereo not given)
    ? | 0% | -4% | -10% | -12% | 8% | -27% | -2.6%
34. COc1ccc(C(=O)Nc2ccc(Cl)cc2C(=O)NCc2ccco2)cc1OC
    ? | ? | -52% | ? | 6% | 4% | ? | -7.6%
35. CC(C)C(NC(=O)/C=C/c1cccc([N+](=O)[O-])c1)C(C)C
    -3% | 1% | 7% | -10% | 11% | 11% | -23% | -3.5%
36. O=S(=O)(Nc1ccc(-c2cn3c(n2)SCC3)cc1)c1cccs1
    -8%[46.1 µM] | 18%[46.1 µM] | / | / | 0% | -3% | 15% | /
37. CCCCNC(=O)C1CCC(CNS(=O)(=O)c2ccc(C)cc2)CC1 (stereo not given)
    -3%&-3%[46.1 µM] | 2%&22%[46.1 µM] | / | 5% | -11% | 0% | -2%&-17% | -0.8%
38. O=C(OCC(=O)N1CCCC1=O)c1ncc(Cl)c(Cl)c1Cl
    0%[46.1 µM] | 8% | / | / | -10% | -1% | -1% | /
39. O=S(=O)(N/N=C\c1cccn1-c1ccccc1)c1ccc2ccccc2c1
    -3% | 10% | 0% | ? | -20% | -8% | 37%[activator] | -2.5%
40. COC(=O)c1ccc2c(=O)n(CCN3CCOCC3)c(SCC(=O)Nc3ccc(OC)cc3OC)nc2c1
    / | / | -21% | / | -11% | 1% | 5% | /
41. COc1ccc(OC)c(NC2=NCCCS2)c1
    -1% | 4% | 9% | / | -15% | 0% | -7% | /
42. COc1ccc(C(=O)NCc2cccnc2)cc1
    7% | 3% | 10% | 0% | 6% | -4% | -7% | 1.4%
43. COc1cc(OC)c(NC(=O)CC(c2cccs2)N2Cc3ccccc3C2=O)cc1Cl (stereo not given)
    / | -18%[46.1 µM] | / | -28% | / | / | 36%[activator] | -4.0%
44. NC(=O)C1CCN(C(=O)COc2cccc3cccnc23)CC1
    / | / | -1% | / | -9% | 0% | -6% | /
45. Cc1ccc(OCC(=O)Nc2ccc(N3CCN(S(C)(=O)=O)CC3)cc2)cc1C
    -21%[46.1 µM] | 2% | 2% | / | -8% | 0% | -14% | /
46. Cc1csc2nc(SCC(=O)N3CCN(c4ccccc4)CC3)[nH]c(=O)c12
    / | / | 9% | / | -2% | -2% | -20% | /
47. O=C(Cc1ccccc1)NNC(=S)NC(=O)c1cccs1
    ? | -16% | -50% | / | 2% | -1% | 19% | /
48. Cc1ccc(NC(=O)CCN2CCN(CCO)CC2)cc1C
    / | ? | / | -3% | / | / | -9% | -0.4%
49. O=C(/C=C/c1ccccc1)NNC(=O)c1cccnc1
    13% | -4% | -4% | -3% | 5% | 1% | / | 5.6%
50. COc1ncnc2c1N=C1CC(C)(C)CC(N)=C1S2
    ? | -21% | 5% | -4% | -13% | 0% | -13% | -4.5%
51. COc1ccc(NS(=O)(=O)c2ccc(C)c(C(=O)N3CCN(Cc4cc(OC)ccc4OC)CC3)c2)cc1
    ? | ? | / | / | -3% | / | -10% | /
52. COCCCNC(=O)CCCOc1ccccc1
    -1% | -6% | 7% | 3% | 5% | 6% | / | 3.3%
53. Cc1cc(C)nc(NC(=O)c2ccc(Cl)cc2[N+](=O)[O-])c1
    4% | ? | 5% | -16% | -8% | 2% | -6% | -1.7%
54. O=C(O)/C=C/C(=O)Nc1ccc(SC(F)(F)C(F)(F)C(F)(F)F)cc1
    / | / | -1% | / | -2% | 1% | 23% | /
55. CCCn1c(=O)c(C(=O)NCCc2ccccc2)c(O)c2ccccc21
    ? | 11%[46.1 µM] | -12% | / | -18% | 4% | 15% | /
56. COc1ccc(N2CCN(C(=O)c3ccccc3NS(=O)(=O)c3ccccc3)CC2)cc1
    -29% | 4% | 5% | / | 9% | 6% | -4% | /
57. COc1ccccc1NC(=O)C1=C(C)Nc2nc(CCCO)nn2C1c1cccc(O)c1 (stereo not given)
    0%[46.1 µM] | -6%[46.1 µM] | / | -2% | / | / | ? | -3.0%
58. Cc1ccc2nc(COc3ccc(NC(=O)COc4ccccc4F)cc3)cc(=O)n2c1
    / | 12%[46.1 µM] | / | 4% | / | / | -8% | 4.1%
59. COc1ccc2c(c1)CC1(CN2C)C(=O)NC(=O)N(c2ccc(F)cc2)C1=O (stereo not given)
    ? | 0% | 23% | 8% | 25% | 8% | -13% | -1.2%
60. Cn1cc(Br)c(-c2cccc(NC(=O)CC(C)(C)CC(=O)O)c2)n1
    -24%[46.1 µM] | 5%[46.1 µM] | 1% | / | 6% | 0% | 1% | /
61. CCOC(=O)N1CCN(c2cc3nccnc3cc2F)CC1
    7% | -16%[14.3 µM] | 4% | 12% | 21% | -2% | 18% | -2.5%

Screening results: PubChem BioAssay, National Center for Advancing Translational Sciences (NCATS)
